Arbovirus inh: antivirals against arbovirus infection, primary screen, cell-based, full library, 10K replicate subset | arbovirus infection cell-based antiviral screen | 0.37% of 200,000 active | AID 1251, 2008 | inhibition, % at 10 µM;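 active = inhibition from about 30%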;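 also: bluetongue infection of BSR cells; cell survival read as ATP light after 72 h; 0% = infected wells without compound and 100% = uninfected wells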
Mtb bLac sens: beta-lactam sensitization of Mtb H37Rv, H37Rv | M. tuberculosis H37Rv growth with meropenem, percent inhibition; hits of this screen are not shown here | inhibition, % at 25 µM | 0.27% of 330,000 active | AID 434955, 2010;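 active = about 74% or more and at least 40 points above the plate without the antibiotic, then above 30% in a dose series; inconclusive = first-round hits that could not be retested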;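 also: growth measured after seven days incubation then overnight dye step; 0% = bacteria only wells and 100% = bacteria with antibiotic; twin plates without the antibiotic show which effects depend on it; some results filed as inactive read as strong as hits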
RecA splice inh: Mtb RecA intein splicing inhibitors, primary screen, biochemical, fluorescence, HTS; 0.75% of 290,000 active; cell-free RecA intein splicing; inhibition, %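 (about 9 µM by stock and volumes)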; Protein RecA (Mycobacterium tuberculosis (strain ATCC 25618 / H37Rv)), P9WHJ3; in the data active = inhibition above about 30%; inconclusive = no clear call, values can overlap the other calls;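 also: 0% = vehicle wells and 100% = reference inhibitor control wells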
Target sequence (P9WHJ3 whole entry, looked up, canonical isoform): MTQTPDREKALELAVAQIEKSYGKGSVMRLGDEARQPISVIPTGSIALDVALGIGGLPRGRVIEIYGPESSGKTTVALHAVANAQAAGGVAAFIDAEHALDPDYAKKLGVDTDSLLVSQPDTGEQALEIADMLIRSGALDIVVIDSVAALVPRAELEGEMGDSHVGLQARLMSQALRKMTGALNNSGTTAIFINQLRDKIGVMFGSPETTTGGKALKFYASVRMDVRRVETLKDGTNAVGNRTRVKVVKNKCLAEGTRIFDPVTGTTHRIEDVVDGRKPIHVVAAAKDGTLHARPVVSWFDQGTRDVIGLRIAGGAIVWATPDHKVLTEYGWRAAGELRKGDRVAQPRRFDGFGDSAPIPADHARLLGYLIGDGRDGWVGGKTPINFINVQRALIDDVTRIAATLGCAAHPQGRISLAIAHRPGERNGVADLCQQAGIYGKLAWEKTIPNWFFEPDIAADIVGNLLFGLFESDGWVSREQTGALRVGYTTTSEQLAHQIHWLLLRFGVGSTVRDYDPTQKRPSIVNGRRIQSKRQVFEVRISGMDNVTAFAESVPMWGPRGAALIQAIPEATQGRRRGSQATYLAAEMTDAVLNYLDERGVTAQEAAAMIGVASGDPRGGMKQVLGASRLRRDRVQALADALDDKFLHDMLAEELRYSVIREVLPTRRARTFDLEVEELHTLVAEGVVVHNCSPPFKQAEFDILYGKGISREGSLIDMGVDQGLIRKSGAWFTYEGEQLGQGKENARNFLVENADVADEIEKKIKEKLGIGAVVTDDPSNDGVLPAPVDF
YopH inh: YopH tyrosine phosphatase inhibitors, primary screen, biochemical, fluorescence Ex485/Em525; YopH tyrosine phosphatase [Yersinia enterocolitica]; inhibition, %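 (about 10 µM by stock and volumes)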; AID 898, 2007; 0.16% of 140,000 active;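 active = inhibition of 50% or more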;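 also: controls were vehicle for no effect and minimum signal wells for full effect; inactives centre near -20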
Mtb growth: M. tuberculosis H37Rv growth inhibitors, H37Rv strain (AID 1626) | M. tuberculosis H37Rv growth inhibition; higher % means a stronger effect | one-dose inhibition, % at 10 µM; IC50 in µM for titrated hits | 0.95% of 220,000 active;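 active = confirmed in a dose series; inconclusive = inhibition above 80% but not taken into the dose series; inactive = below 80% or under 30% at every dose of the series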;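 also: bacteria incubated seven days before Alamar blue readout; 0% = bacteria only wells and 100% = bacteria with antibiotic wells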
Arbovirus inh repeat: also measured in Arbovirus inh; calls as there; inhibition, %; measured here: 10K subset replicate screen; many hits read low in the repeat;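 first of two repeat runs on a subset; 0% = infected and 100% = uninfected wells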
* hit, by the source's call; ? = inconclusive; nt = no result given. The list is partial, so the mix of outcomes need not match the whole.

SMILES	Arbovirus inh	Mtb bLac sens	RecA splice inh	YopH inh	Mtb growth	others
O=[N+]([O-])c1ccc(-[n+]2ccc3ccccc3c2)c([N+](=O)[O-])c1	nt	9	27	nt	nt
Cn1c(CCN2CCCCC2)nc2cc(NS(=O)(=O)c3ccccc3)ccc21	5	4	0.9	-51	-9%
COC(=O)c1ccc(C(=O)OC)c(NC(=O)CN2CCCCC2)c1	7	15	0.2	nt	1%
NC(=O)c1ccsc1NC(=O)c1nc(-c2ccccc2)n(-c2ccccc2)n1	8	3	1.4	-10	1%
O=C(CS(=O)CC(=O)NC12CC3CC(CC(C3)C1)C2)Nc1ccc(F)cc1 (stereo unspecified)	nt	-5	2.9	nt	nt
CC(C)(C)c1nnc(NC(=O)C2c3ccccc3Oc3ccccc32)s1	nt	?	-1.0	nt	8%
O=C(CSc1nnc(CNC(=O)c2c(F)cccc2Cl)o1)c1ccccc1	-6	-1	-0.4	-31	-9%
Cc1ccc(NC(=O)CN2CCc3ccccc3C2)cc1S(=O)(=O)N(C)C	7	0	-1.0	nt	6%
CN(C)S(=O)(=O)NCCNC(=O)c1cc(OCC(F)(F)F)ccc1OCC(F)(F)F	20	-1	0.6	nt	11%
NC(=O)CSc1nnc(-c2ccco2)n1-c1ccccc1	nt	0	-0.5	nt	nt
Cc1cc(C)c(S(=O)(=O)N(CC(=O)O)CC(=O)O)c(C)c1	-4	-5	-0.2	-50	-14%
COC(=O)c1c(NC(=O)C(=O)NCCCN2CCOCC2)sc2c1CC(C)(C)OC2	nt	-6	-2.3	nt	nt
CCc1nnc(NC(=O)CCc2ccccc2OC)s1	nt	2	0.4	nt	nt
Cn1c(NNC(=O)c2ccc(C(C)(C)C)cc2)cc(=O)n(C)c1=O	-3	3	0.0	-16	4%
COc1cccc(-c2nc(C(=O)NCCCN3CCOCC3)cc3c2[nH]c2ccccc23)c1	nt	-8	-0.1	nt	nt
CC1=C(C(=O)OCCOc2ccccc2)C(c2ccc(C)o2)C2=C(CC(C)(C)CC2=O)N1 (stereo unspecified)	-10	-19	4.3	-27	13%	Arbovirus inh repeat=-1
COc1ccccc1NC(=O)c1ccc(NS(=O)(=O)c2cccc3cccnc23)cc1	-3	7	-4.3	-23	5%
Clc1ccc(CSc2ccc(-c3ccccn3)nn2)cc1	-26	99	1.3	nt	?
COc1ccc(NC(=O)Cc2c(SC)c3ccccc3n2Cc2ccccc2)cc1	-21	4	-1.3	-4	73%
S=C(c1ccc(-c2ccc(Br)cc2)o1)N1CCOCC1	nt	-4	3.2	nt	3%
O=C(NNC(=O)c1cc(-c2ccc(Cl)c(Cl)c2)nc2ccccc12)Nc1ccccc1	2	-2	-1.0	-18	nt
CCOC(=O)C(C)Sc1nc2c(c(=O)[nH]c(=O)n2C)n1C/C=C(/C)Cl (stereo unspecified)	20	2	-3.8	-8	2%
CN1CCN(NC(=S)NC2CCCCC2)CC1	-4	5	-6.1	17	4%
CC(c1ccccc1)C1CC(=O)N(c2cc(Cl)ccn2)C1=O (stereo unspecified)	nt	-4	-1.5	nt	-9%
COC(=O)CCCCNC(=O)Nc1ccccc1	1	4	1.0	nt	1%

Brought forward from above: five compounds, followed by the next part.
SMILES	Arbovirus inh	Mtb bLac sens	RecA splice inh	YopH inh	Mtb growth	others
O=C(NNC(=O)c1cc(-c2ccc(Cl)c(Cl)c2)nc2ccccc12)Nc1ccccc1	2	-2	-1.0	-18	nt
CCOC(=O)C(C)Sc1nc2c(c(=O)[nH]c(=O)n2C)n1C/C=C(/C)Cl (stereo unspecified)	20	2	-3.8	-8	2%
CN1CCN(NC(=S)NC2CCCCC2)CC1	-4	5	-6.1	17	4%
CC(c1ccccc1)C1CC(=O)N(c2cc(Cl)ccn2)C1=O (stereo unspecified)	nt	-4	-1.5	nt	-9%
COC(=O)CCCCNC(=O)Nc1ccccc1	1	4	1.0	nt	1%
CCc1cccc(C)c1NC(=O)CSc1nc(C)c(C)o1	nt	-3	1.0	nt	nt
CCOC(=O)N1CCN(C(=O)CSc2nnc(-c3c[nH]c4ccccc34)n2CCOC)CC1	7	-4	-0.6	-52	nt
O=C(NCCCN1CCCC1=O)c1cccc(S(=O)(=O)NCc2ccccc2)c1	nt	-6	4.7	nt	nt
Cc1cc(C(C)(C)C)oc1C(=O)N(CC(=O)NC1CCCC1)Cc1ccccc1	-3	3	-0.6	-29	0%
NC(=O)Cn1nnc(-c2ccc(CN3CCCCC3)cc2)n1	-6	3	2.1	nt	0%
COc1ccc(C(=O)NC(=S)N(C)C2CCCCC2)cc1Br	nt	60	1.3	nt	nt
O=C(CCS(=O)(=O)c1cccs1)Nc1ccc(C(=O)NCc2ccccc2)cc1	11	-1	0.4	-6	-1%
COCCCNC(=S)NNC(=O)c1cc(-c2cccnc2)nc2ccccc12	nt	3	0.7	nt	nt
O=C(NCCc1ccc(Cl)cc1)c1cc(-c2ccccn2)nc2ccccc12	nt	6	0.4	nt	nt
O=C1c2ccccc2C(=O)N1CSc1nnc(Nc2ccccc2)s1	-6	-2	0.9	nt	2%
O=C(CN1CCCC1)Nc1ccc(Cl)cc1C(=O)c1ccccc1	-2	7	-1.0	nt	12%
Cc1cc2oc3ccc(NCCCn4ccnc4)cc3c(=O)c2cc1C	nt	84	-7.1	nt	?
CCOC(=O)c1c(-c2ccccc2)csc1NC(=O)CCN1C(=O)c2ccccc2C1=O	3	3	4.7	-22	-2%
COc1cc(/C=C/C(=O)N2CCOCC2)ccc1OCc1ccccc1	-2	5	-4.1	-29	1%
O=C(O)CCC(=O)N1CCN(c2nc3ccccc3s2)CC1	9	-6	11	-3	-3%
O=C(Nc1ccccc1)c1ccccc1OCc1cccc([N+](=O)[O-])c1	4	7	-1.8	-30	-1%
COC(=O)CCCC1=CC2=C(c3ccccc3)C(=O)C(C)(OC(=O)C3CCCC3)C(=O)C2=CN1Cc1ccc2c(c1)OCO2 (stereo unspecified)	nt	-2	17	nt	-8%
COc1ccc(OC)c(Nc2nc(-c3cccs3)cs2)c1	-12	nt	10	-34	20%
COc1ccc(CNC(=O)CSc2nnnn2Cc2ccccc2)cc1	-20	0	0.4	9	13%
CC1CN(C(=O)Cn2cnc3c2c(=O)n(C)c(=O)n3C)CC(C)O1 (stereo unspecified)	-3	-8	-0.5	10	-3%
CCCC(=O)NC(Nc1cc(C(F)(F)F)ccc1Cl)C(Cl)(Cl)Cl (stereo unspecified)	11	6	3.9	-24	13%
COCCn1c(CN2CCN(c3ccc(OC)cc3)CC2)nc2c1c(=O)n(C)c(=O)n2C	3	87	-2.7	-42	-24%
N#Cc1c(NC(=O)CCC(=O)O)sc2c1CCCC2	-2	-3	0.4	29	-8%
N#Cc1c(/N=C/c2cc(Br)cs2)sc2c1CCC2	nt	-1	-0.8	4	-5%
O=C(Nc1ccsc1C(=O)O)c1ccc(Cl)cc1	nt	0	-2.0	nt	nt
SMILES	Arbovirus inh	Mtb bLac sens	RecA splice inh	YopH inh	Mtb growth	others
COc1ccc([N+](=O)[O-])cc1NC(=O)CC(C)c1ccccc1 (stereo unspecified)	0	-3	3.8	-35	8%
Cc1ccc(S(=O)(=O)N2CCOCC2)cc1C(=O)Nc1c(C)n(C)n(-c2ccccc2)c1=O	8	-5	nt	-26	-5%
O=C(CCCN1C(=O)/C(=C/c2ccco2)SC1=S)Nc1ccccc1	2	94	11	-17	?
CN(CC(=O)Nc1cccc(F)c1)C(=O)CN1C(=O)NC2(CCCCC2)C1=O	nt	-6	-3.0	nt	nt
O=C(Nc1ccccc1)c1ccco1	nt	-1	0.0	nt	nt
CC(OC(=O)c1ccc(S(=O)(=O)N2CCOCC2)cc1)c1ccccc1 (stereo unspecified)	nt	-7	3.4	nt	nt
COc1ccc(-c2cc(C(F)(F)F)nc(SCC(=O)N(C)Cc3cn(C)nc3C)n2)cc1OC	-2	0	-6.4	-19	-2%
COc1ccc(Nc2nc(-c3sc(NC(C)=O)nc3C)cs2)cc1	-11	2	1.0	-21	nt
COc1ccc(CSc2nnnn2-c2ccc(O)cc2)cc1F	nt	5	7.9	nt	nt
COc1ccccc1N1CCN(C(=O)c2sc3ncnc(N4CCN(c5ccccn5)CC4)c3c2C)CC1	nt	89	1.1	nt	nt
CCCN(CCC)CCNC(=O)c1cc2c(=O)n(C)c3ccccc3c2n1C	3	-3	0.4	-16	-6%	Arbovirus inh repeat=-4
c1ccc(CNc2nc(-c3cccs3)nc3ccccc23)cc1	-5	nt	1.6	0	13%
COc1ccc(C(=O)O/N=C(\N)c2ccccn2)c(OC)c1	nt	-9	nt	nt	-1%
COc1cc(/C=N/NC(=O)COc2ccc([N+](=O)[O-])cc2)ccc1OCC(=O)N1CCOCC1	nt	3	5.9	nt	nt
CCC(C(=O)NCCC1=CCCCC1)n1nc(C)c2c(C)n(-c3ccccc3)nc2c1=O (stereo unspecified)	nt	0	3.6	nt	nt
COc1ccc(N/C(=N\c2nc(C)cc(C)n2)NC(=O)C(C)C)cc1OC	4	-6	1.0	-39	12%
CC1CCN(S(=O)(=O)c2ccc(Br)s2)CC1	-12	-6	3.7	3	5%
Fc1cccc(Cl)c1Cn1nnc(-c2ccc(N3CCOCC3)cc2)n1	7	-3	0.9	-20	-8%
Cc1ccc(S(=O)(=O)Nc2ccccc2C(=O)N2CCOCC2)cc1	nt	-6	0.3	nt	nt
CCOC(=O)c1c(N)sc(=S)c2c1CCC2	-4	-15	12	19	5%
CSc1nsc(SCC(=O)Nc2nncs2)n1	-2	-15	-2.3	nt	-7%
CC(=O)OC(C(=O)NCc1ccc2c(c1)OCO2)c1ccccc1Cl (stereo unspecified)	4	-16	-0.1	-36	13%
CC(=O)c1c(C)[nH]c(C(=O)OCC(=O)N2CCN(S(=O)(=O)c3ccc(C)cc3C)CC2)c1C	-22	0	0.0	12	8%
CCNC(=O)NC(=O)COC(=O)CCc1nc(=O)c2ccccc2n1C	-1	1	-0.9	nt	-7%
CCOC(=O)Cc1csc(NC(=O)c2ccc3c(c2)OCO3)n1	-12	-4	-0.5	-13	0%

Molecules listed so far containing a cyano group:
SMILES	Arbovirus inh	Mtb bLac sens	RecA splice inh	YopH inh	Mtb growth	others
N#Cc1c(NC(=O)CCC(=O)O)sc2c1CCCC2	-2	-3	0.4	29	-8%
N#Cc1c(/N=C/c2cc(Br)cs2)sc2c1CCC2	nt	-1	-0.8	4	-5%

Other entries follow:
SMILES	Arbovirus inh	Mtb bLac sens	RecA splice inh	YopH inh	Mtb growth	others
CCN(CC)Cc1c(O)ccc2c(=O)c(-c3ccc4c(c3)OCCO4)coc12	30	-2	-0.5	0	5%
Cc1c(NS(C)(=O)=O)c(=O)n(-c2ccccc2)n1C	3	-13	0.1	-27	?
CC1(C)Cc2c(sc(NC(=O)C(=O)N3CCCC3)c2C(N)=O)CO1	nt	8	-3.8	nt	nt
O=C(/C=C/c1cccc([N+](=O)[O-])c1)c1cccs1	-1	100	3.7	-16	11µM*
CCc1ccc(NC(=O)c2ccc(F)c(S(=O)(=O)NCC3COc4ccccc4O3)c2)cc1 (stereo unspecified)	25	-3	5.0	-27	-14%
CCCCn1c(N)c(-c2nc3ccccc3s2)c2c([N+](=O)[O-])nn(C)c(=O)c21	-11	-4	-3.3	-2	5%
COc1cccc(NC(=O)c2ccnc(N3CCC(C(=O)NCc4ccccc4OC)CC3)c2)c1	nt	1	-5.6	nt	nt
COc1ccc(C(=O)/C(=C\c2sccc2C)c2nc3ccccc3o2)cc1	8	-1	nt	-1	-2%
C=CC(=O)NC(NC(=O)C=C)c1ccccc1F	nt	-8	-1.7	nt	nt
Cc1[nH]c2ccc(-c3nnc(SCC(=O)N4CCCc5ccccc54)o3)cc2c1C	-7	5	-2.5	-32	-5%
COc1ccccc1N1CCN(C(=O)c2cccc(Oc3ccccc3)c2)CC1	-9	0	0.8	nt	8%
COc1cc(NC(=O)c2sc3ncn(CC(=O)N4CCCCC4)c(=O)c3c2C)cc(OC)c1OC	nt	1	-3.6	nt	nt
C=CCNc1nc2ccccc2c(=O)[nH]1	-4	-1	-0.8	nt	0%
Oc1ccccc1Nc1nc(NCc2ccco2)c2ccccc2n1	nt	99	22	nt	?
O=C(Nc1ccc(C(=O)N2CCCC2)cc1)c1cccc(C(F)(F)F)c1	nt	-14	-8.0	nt	nt
COc1cc(C)c(CNCCc2c[nH]c3ccccc23)cc1C	nt	0	1.3	nt	nt
N#Cc1ccc(-c2ccc(F)cc2)nc1Oc1ccc(F)cc1	-1	5	-0.9	-32	-8%
Fc1ccccc1CSc1nc2ncc(Br)cc2[nH]1	9	-7	-1.2	-14	-2%
COc1ccc(N(CC(O)CN2CCCCC2)S(=O)(=O)c2ccc(C)cc2)cc1 (stereo unspecified)	-6	-5	0.2	-37	0%
